# Fam108B inh: blocks mouse Fam108B hydrolase in RBBP9 counter-screen; inhibition, % at 9.51 µM; AID 1947; 0.33% of 300,000 active; recombinant Fam108B, FP-Rh probe fluorescence polarization;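 active means inhibition above the screen mean inhibition plus 3 SD, computed separately per campaign, cut at about 18% in these data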;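 further: inhibitors lower polarization as less probe binds the enzyme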
# AHR act: human AHR activation; activation, % at 5 µM; 2.5% of 320,000 active; P35869; AHR-responsive luciferase reporter cells, luminescence; in the data active means activation above about 47%;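 further: 0% = vehicle wells and 100% = reference agonist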
# pPAFAH FP inh: pPAFAH (human) enzyme inhibition; inhibition, % at 3.39 µM; recombinant pPAFAH, FP-rhodamine probe fluorescence polarization; 1.5% of 330,000 active; Q13093;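 active means inhibition above the mean inhibition across the screen plus 3 SD, cut at about 25% in these data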;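 further: inhibitors block binding of the rhodamine activity-based probe so polarization drops; 0% = enzyme with DMSO and 100% = wells lacking pPAFAH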
# Target sequence (Q13093 whole entry, looked up): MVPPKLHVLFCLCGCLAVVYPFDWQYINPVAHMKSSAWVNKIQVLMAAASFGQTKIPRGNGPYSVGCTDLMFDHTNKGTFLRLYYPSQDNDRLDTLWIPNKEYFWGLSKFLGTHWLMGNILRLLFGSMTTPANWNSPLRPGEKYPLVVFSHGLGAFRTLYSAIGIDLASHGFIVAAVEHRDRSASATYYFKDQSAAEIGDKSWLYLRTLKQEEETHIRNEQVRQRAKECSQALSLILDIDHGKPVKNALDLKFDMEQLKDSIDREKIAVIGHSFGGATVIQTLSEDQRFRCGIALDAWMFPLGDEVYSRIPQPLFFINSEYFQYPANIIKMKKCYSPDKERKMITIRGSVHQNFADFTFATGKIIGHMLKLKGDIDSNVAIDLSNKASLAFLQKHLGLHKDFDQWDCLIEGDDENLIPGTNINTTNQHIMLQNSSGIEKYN
# PAFAH1B2 inh: inhibitors of human PAFAH1B2; inhibition, % at 3.39 µM; 1.2% of 340,000 active; recombinant PAFAH1B2, FP-rhodamine activity probe, fluorescence polarization; P68402;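 active means inhibition above the mean of all tested compounds plus 3 SD, cut at about 24% in these data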;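 further: 0% = enzyme with DMSO and 100% = wells lacking PAFAH1B2; many of its hits are not listed in these tables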
# BCLXL inh: inhibitors of human Bcl-xL; 0.7% of 320,000 active; inhibition, % at 10.9 µM; GST-Bcl-xL / FITC-Bim BH3 peptide fluorescence polarization; AID 2129;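 active means inhibition above the mean of all tested compounds plus 3 SD, cutoff set per campaign, cut at about 30% in these data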;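 further: 0% = DMSO wells and 100% = unlabeled Bim-BH3 peptide competitor; inhibitors lower millipolarization by displacing the labeled peptide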
# GLD-1 TGE inh: GLD-1-TGE RNA interaction inhibition (C. elegans). 0.44% of 320,000 active. purified GLD-1 + fluorescein TGE RNA, fluorescence polarization. inhibition, % at 5.96 µM;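 active means percent inhibition above a per-plate cutoff, the plate mean of test compounds plus 3 SD, cut at about 30% in these data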;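 further: 0% = DMSO wells with GLD-1 and probe and 100% = wells lacking GLD-1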
# MCL1 BIM primary: disrupts human MCL1 binding to BIM-BH3 peptide. GST-MCL1 / FITC-Bim-BH3 fluorescence polarization. inhibition, % at 10.9 µM. AID 2057. 0.68% of 320,000 active;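 active means inhibition above the mean inhibition of all tested compounds plus 3 SD, set per campaign, cut at about 40% in these data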;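 further: 0% = DMSO wells and 100% = unlabeled Bim-BH3 peptide control; higher means more loss of mP so more displacement of Bim peptide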
# MEX-5 binding: C. elegans MEX-5 TCR-2 RNA binding activity. MEX-5/FITC-TCR2 RNA binding, fluorescence polarization; active compounds read low. activity score (negative = inhibition of binding), % at 10 µM. 0.38% of 300,000 active. AID 1832;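 active means inhibition past about -25% in most replicates, and total fluorescence under double the plate's negative control median, limit read from the data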;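 further: 0% = DMSO and -100% = 5 µM competing unlabeled TCR2 RNA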
# Target sequence (Q9XUB2 whole entry, looked up): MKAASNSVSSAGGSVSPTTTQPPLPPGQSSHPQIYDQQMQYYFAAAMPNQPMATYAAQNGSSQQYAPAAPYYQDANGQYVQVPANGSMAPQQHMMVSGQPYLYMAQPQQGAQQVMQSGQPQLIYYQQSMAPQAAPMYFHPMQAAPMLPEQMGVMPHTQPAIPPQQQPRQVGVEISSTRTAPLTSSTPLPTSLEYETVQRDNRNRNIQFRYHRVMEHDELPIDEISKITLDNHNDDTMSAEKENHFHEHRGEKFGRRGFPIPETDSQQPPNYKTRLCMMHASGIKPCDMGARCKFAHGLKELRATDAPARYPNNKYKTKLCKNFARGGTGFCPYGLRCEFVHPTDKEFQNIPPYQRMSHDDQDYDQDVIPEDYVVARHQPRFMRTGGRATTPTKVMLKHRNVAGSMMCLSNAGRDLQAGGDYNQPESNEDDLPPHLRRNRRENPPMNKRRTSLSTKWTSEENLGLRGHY
# * = called active by the depositor; x = not tested or not shown. Only part of the results is shown; the hit share may differ from the screen's.
# Each structure is followed by: Fam108B inh, AHR act, pPAFAH FP inh, PAFAH1B2 inh, BCLXL inh, GLD-1 TGE inh, MCL1 BIM primary, MEX-5 binding
- Oc1c(Br)cc(Cl)cc1C=Nc1ccccc1Br
 : 1, 4, -1, -3, 13, 0, 15, 0.3
- Cc1ccccc1S(=O)(=O)Nc1nc2ccccc2nc1Cl
 : 2, 1, 0, 2, 6, 1, 2, -4.1
- O=C(NCCSCc1ccccc1)c1cc(S(=O)(=O)N2CCOCC2)ccc1F
 : 2, 0, 2, 6, 4, 7, 15, x
- COc1ccc(NS(=O)(=O)c2cccc3cccnc23)cc1Cl
 : -4, 19, -3, 7, 2, -11, 3, -2.2
- COc1cccc(C(=O)N2CCN(Cc3cc(Br)ccc3OC)CC2)c1
 : 1, 2, 0, 2, 1, 0, 3, x
- O=C(COc1ccccc1)NC(=S)Nc1cccc2cc(O)ccc12
 : 2, 14, 2, 5, 2, 2, 14, 1.4
- C[C@H](NC(=O)c1nc[nH]c1C(=O)N[C@H](C)c1ccccc1)C(=O)OC(C)(C)C
 : -8, 3, 7, 4, -1, 4, 2, -0.8
- O=[N+]([O-])c1ccc(N2CCN(S(=O)(=O)c3ccccc3)CC2)cc1NCc1cccnc1
 : -4, 19, 6, 2, 7, 3, 6, 3.3
- Cn1c(=O)c2c(ncn2CC(=O)N2CCN(S(=O)(=O)c3ccc(Cl)cc3)CC2)n(C)c1=O
 : -2, -1, -7, 7, -24, -1, -39, -0.2
- CCN(CC)C(=O)c1[nH]cnc1C(=O)N[C@@H](C)C(=O)OC(C)(C)C
 : -1, 5, -8, 0, 9, -12, 11, 0.6
- COC(=O)c1c(CCl)noc1C(=O)NC(C)C
 : -5, -1, -5, 1, 5, 4, 4, 3.9
- CCOc1ccc(/C=N/n2c(C)nnc2C)cc1OC
 : 1, 2, -2, x, 2, 6, 0, 0.8
- CCOC(=O)C1=C(N)N(c2ccc(C)cc2)C2=C(C(=O)CCC2)C1c1cccs1 (configuration not stated)
 : 3, -3, -1, 8, 8, 4, 8, 2.9
- CCC(=O)N1CCc2cc(S(=O)(=O)NC(C(=O)NC3CCCc4ccccc43)C(C)C)ccc21 (configuration not stated)
 : -1, 0, 5, 1, 8, 7, 2, -0.5
- CCOC(=O)N1CCN(C(=O)c2ccc3c(c2)N(Cc2ccc(F)cc2)CCS3)CC1
 : 3, -1, 11, 7, 2, 3, 1, -2.7
- CCn1c2ccccc2c2cc(NC(=O)COC(=O)c3ccc(NC(=O)CC#N)cc3)ccc21
 : 15, 41, 35*, 5, 1, -8, 15, 1.2
- N#Cc1c(SCC(=O)O)nc(N2CCCCC2)c2c1CCCC2
 : -8, 8, 5, 5, 8, 2, 7, 0.7
- COc1ccc(N(C)C(=O)c2oc(=O)c3ccccc3c2-c2ccccc2)c(OC)c1
 : -4, 0, 3, 3, 2, 4, 9, 0.1
- COc1ccc(S(=O)(=O)Nc2cccc(-c3ccc4nncn4n3)c2)cc1
 : -2, -1, 6, 2, 1, 3, -4, -2.5
- COc1ccc(NC(=O)c2cc3ccc(O)cc3o/c2=N\O)cc1
 : 4, -9, 9, -6, 10, -8, 4, -0.8
- O=C(Cn1[nH]c(=O)c2ccccc2c1=O)N1CCN(S(=O)(=O)c2ccc(Cl)cc2)CC1
 : x, -1, 2, 10, 3, 2, -1, x
- CSc1nc(N(C)C)nc(N2CC(=O)N(CCNS(=O)(=O)c3ccc(C)cc3)C2=N)n1
 : -7, -5, 4, -7, 5, -6, 3, -2.9
- COc1ccc(C(=O)Nc2ccc(C3(C#N)CCCC3)cc2)cc1
 : 5, 6, 5, 7, 3, 9, 5, 0.4
- COc1cc(Br)c(CC(=O)O)cc1OC
 : 5, -4, 4, x, 4, -2, 6, 0.3
- CCN(CC)S(=O)(=O)c1ccc(C)c(NC(=O)CN2CCN(Cc3ccccc3)CC2)c1
 : -1, -2, 1, 0, 11, -2, 5, -1.8
- CC(=O)C1=C(O)C(=O)N(c2ccc(Br)cc2)C1c1ccccc1[N+](=O)[O-] (configuration not stated)
 : 0, 15, 3, 5, 10, 4, 13, -1.4
- CN(c1ccc(C(=O)NCCCn2ccnc2)cc1)S(C)(=O)=O
 : 5, 2, 0, 6, 4, 4, 2, 0.5
- COc1ccc(-c2c(NCCc3ccccc3)c(=O)c2=O)cc1
 : -6, 5, 1, 1, 0, 1, -8, 1.5
- C=CCN(CC=C)S(=O)(=O)c1ccc(NC(=S)NC(=O)c2ccco2)cc1
 : 9, 1, 1, -3, -1, -1, 7, 0.8
- CCN(Cc1nc2ccccc2c(=O)[nH]1)C(=O)C1CC(=O)N(c2cccc3ccccc23)C1 (configuration not stated)
 : x, 5, 4, -4, 3, 7, 3, x
- O=C(NCCCN1CCOCC1)c1ccc(NC(=O)C2COc3ccccc3O2)cc1 (configuration not stated)
 : 5, 2, -1, 1, 3, -3, 12, -3.8
- O=c1oc(-c2ccc([N+](=O)[O-])cc2)nc2ccc(O)cc12
 : 3, 2, 5, 7, 2, 2, 0, -0.3
- O=[N+]([O-])c1ccc(Cl)c(/C=N/n2c(C3CCCCC3)n[nH]c2=S)c1
 : -5, 0, -5, 7, -6, -2, -12, 0.8
- Cc1ccc(S(=O)(=O)N2CCC(C(=O)N/N=C/c3cccnc3)CC2)cc1
 : 5, 0, 2, 7, 4, 3, -1, 0.1
- CC1(C)CC(=O)c2c(oc3ccc(NS(=O)(=O)c4cccc5cccnc45)cc23)C1
 : 2, -1, -3, -6, 0, 10, -5, 1.0
- CCc1ccccc1NC(=O)CNC(=O)c1n[nH]c(=O)c2ccccc12
 : x, 3, -1, -2, -2, 4, 2, x
- Cc1ccc(S(=O)(=O)N2CCCCC2)cc1C(=O)OCC(=O)NC(=O)NC12CC3CC(CC(C3)C1)C2
 : -3, -1, 0, 11, 2, 7, -1, -1.9
- COc1ccc2nc(NC(=O)NC3CCCCC3)sc2c1
 : 4, 5, 10, 5, 5, 2, 7, 3.5
- Cc1ccc(NC(=O)CN2c3cccc4cccc(c34)S2(=O)=O)cc1S(=O)(=O)N1CCOCC1
 : -7, 4, 1, -4, 0, 3, -4, -1.9
- COc1ccccc1NS(=O)(=O)c1ccc(NC(=O)c2nc3nc(C)cc(C(F)F)n3n2)cc1
 : -2, -1, 4, -2, 1, 2, 1, -4.8
- O=C(OCC(=O)N1CCCC1)c1c2c(nc3ccccc13)CCCCC2
 : 1, 5, -2, 6, 3, 5, 6, -1.8
- Fc1ccc(-n2c(-c3cc(C4CC4)[nH]n3)n[nH]c2=S)cc1Cl
 : -1, 24, 0, 3, -15, 13, -10, 1.0
- Cc1cc(C)c(S(=O)(=O)n2cc(C(C)C(N)C(=O)O)c3ccccc32)c(C)c1 (configuration not stated)
 : -1, 1, -1, 1, 1, -5, -1, 4.1
- Cc1nnc(SCC(=O)N(C)c2ccccc2)n1Cc1ccccc1
 : -5, -1, -1, 6, -1, 4, -4, 0.2
- O=C1CN(C(=O)c2cc3ccccc3oc2=O)C(c2ccc(F)cc2)c2cc(Br)ccc2N1 (configuration not stated)
 : -2, 8, 3, 4, -4, 4, -2, 0.0
- CCOCCCNC(=S)NCCNc1nc2ccc(C)cc2cc1C#N
 : -4, 31, 6, 1, 1, -7, 2, 0.3
- CC(C)C[C@H](NC(=O)c1nc[nH]c1C(=O)N1CCNCC1)C(=O)OC(C)(C)C
 : -5, -1, 0, 2, 12, -5, 15, -3.8
- O=C(NCCCn1ccnc1)c1ccc(Cl)c(Cl)c1
 : 0, 51*, 7, 6, 3, 1, 8, 2.6
- O=S(=O)(Nc1cccc(-c2ccc3nncn3n2)c1)c1cc(F)ccc1F
 : -2, 1, 2, -1, 2, 6, 5, 1.8
- COc1cccc(NC(=O)NNC(=O)COc2ccc3ccccc3c2)c1
 : 0, -1, 3, -4, 2, -1, 4, 3.5
- CCOC(=O)CSc1nc2c(sc(=S)n2-c2ccc(CC)cc2)c(=O)[nH]1
 : 6, 2, 14, 8, 4, 2, 5, 1.1
- CC(/C=C/c1cccc([N+](=O)[O-])c1)=N\NC(=O)c1ccncc1
 : 4, 39, 1, -8, -2, 0, -1, -0.4
- Cc1ccc(-n2c(=O)[nH]c3c(C(N)=O)nc(C(C)C)nc32)cc1
 : -2, 17, 4, -2, 1, 2, 4, 1.2
- COc1ccc(Cn2nnc3c(=O)[nH]c(C4CCN(S(=O)(=O)c5ccc(C)cc5)CC4)nc32)cc1
 : -4, -1, 10, 0, 3, 5, 2, 1.9
- Cc1ccc2c(c1)CCCN2CC(=O)Nc1cc(S(=O)(=O)N2CCCC2)ccc1Cl
 : x, 22, -1, -3, -2, -85, -13, x
- O=[N+]([O-])c1cc(-c2nnc(Nc3ccccc3)c3ccccc23)ccc1N1CCOCC1
 : 1, 1, 6, 17, 5, -1, 7, -2.0
- CCOc1ccc(Br)cc1S(=O)(=O)Nc1ccc(NC(=O)c2ccccc2C)cc1
 : -12, 1, 3, 1, 8, 6, -10, -2.0

# Ordered by formula weight (ascending): 14 of the compounds above.
# Each structure is followed by: Fam108B inh, AHR act, pPAFAH FP inh, PAFAH1B2 inh, BCLXL inh, GLD-1 TGE inh, MCL1 BIM primary, MEX-5 binding
- O=c1oc(-c2ccc([N+](=O)[O-])cc2)nc2ccc(O)cc12
 : 3, 2, 5, 7, 2, 2, 0, -0.3
- CC(/C=C/c1cccc([N+](=O)[O-])c1)=N\NC(=O)c1ccncc1
 : 4, 39, 1, -8, -2, 0, -1, -0.4
- CCc1ccccc1NC(=O)CNC(=O)c1n[nH]c(=O)c2ccccc12
 : x, 3, -1, -2, -2, 4, 2, x
- Cc1nnc(SCC(=O)N(C)c2ccccc2)n1Cc1ccccc1
 : -5, -1, -1, 6, -1, 4, -4, 0.2
- COc1cccc(NC(=O)NNC(=O)COc2ccc3ccccc3c2)c1
 : 0, -1, 3, -4, 2, -1, 4, 3.5
- CCOCCCNC(=S)NCCNc1nc2ccc(C)cc2cc1C#N
 : -4, 31, 6, 1, 1, -7, 2, 0.3
- Cc1ccc(S(=O)(=O)N2CCC(C(=O)N/N=C/c3cccnc3)CC2)cc1
 : 5, 0, 2, 7, 4, 3, -1, 0.1
- CC(C)C[C@H](NC(=O)c1nc[nH]c1C(=O)N1CCNCC1)C(=O)OC(C)(C)C
 : -5, -1, 0, 2, 12, -5, 15, -3.8
- CCOC(=O)CSc1nc2c(sc(=S)n2-c2ccc(CC)cc2)c(=O)[nH]1
 : 6, 2, 14, 8, 4, 2, 5, 1.1
- CC1(C)CC(=O)c2c(oc3ccc(NS(=O)(=O)c4cccc5cccnc45)cc23)C1
 : 2, -1, -3, -6, 0, 10, -5, 1.0
- Cc1ccc2c(c1)CCCN2CC(=O)Nc1cc(S(=O)(=O)N2CCCC2)ccc1Cl
 : x, 22, -1, -3, -2, -85, -13, x
- COc1ccccc1NS(=O)(=O)c1ccc(NC(=O)c2nc3nc(C)cc(C(F)F)n3n2)cc1
 : -2, -1, 4, -2, 1, 2, 1, -4.8
- O=C1CN(C(=O)c2cc3ccccc3oc2=O)C(c2ccc(F)cc2)c2cc(Br)ccc2N1 (configuration not stated)
 : -2, 8, 3, 4, -4, 4, -2, 0.0
- Cc1ccc(S(=O)(=O)N2CCCCC2)cc1C(=O)OCC(=O)NC(=O)NC12CC3CC(CC(C3)C1)C2
 : -3, -1, 0, 11, 2, 7, -1, -1.9

# Screening data (PubChem)
